Source: PubChem
VACV Venus inh – vaccinia inhibition (Venus reporter). Vaccinia virus Venus reporter expression, fluorescence. Potency, µM (series often up to 36.5 µM), without a hit: at the highest dose activity change, negative = inhibition, hits mostly inhibitors. 0.46% of 330,000 active. AID 720580; active means well fitted inhibition curve with a large enough effect; inconclusive means small, poorly fitted or top-dose-only effect; inactive means no such curve, though single readings can be large or run the other way; tested in A549 cells; further: nearly all actives have a fitted effect of over 30% in size; inactives centre near -10
VACV mCherry inh – inhibitors of vaccinia virus infection (mCherry reporter signal). Vaccinia virus mCherry reporter infection, fluorescence; about a quarter of the inactives have no number. Potency, µM (top dose mostly 36.5 µM), for the others: top-dose activity change, negative = inhibition, most hits filed as inhibitors. 0.63% of 310,000 active; active = well fitted inhibition curve with a large enough effect; inconclusive = small, poorly fitted or top-dose-only effect; inactive = no such curve, though single readings can be large or run the other way; tested in A549 cells; further: nearly all actives have a fitted effect of over 35% in size; inactives centre near -10
Starred values were filed as active, the others as inactive; i = inactive; ? = inconclusive; nt = no result given; & = joins results of further samples; [ ] = another dose, or the depositor's remark. On the % scale 0 is the no-effect control and ±100 the full control effect; potency means the concentration at half of the fitted maximal effect. Rows are unselected, and some 0.82% of all compounds hit somewhere here.

The first 7 compounds (preview)
SMILES	VACV Venus inh	VACV mCherry inh
CCCNC(=O)N1[C@H]2CC[C@@H]1C(C(=O)OC)=C(c1ccc(S(C)(=O)=O)cc1)C2	-7%	-13%
Cc1noc(C)c1COc1cccc(C(=O)OCCOc2ccc(F)cc2)c1	-10%	nt
Cc1nc2c(C#N)c[nH]n2c(=O)c1CCO	-5%	i
Cc1noc(NS(=O)(=O)c2ccc(NC(=O)C(F)(F)C(F)(F)C(F)(F)F)cc2)c1C	-1%	-9%
COc1cc(OC)cc(-c2c(-c3cccs3)c3cc(-c4ccc(OC)c(OC)c4)ccc3n2C)c1	-8%	i
Cc1ccc(N(CCC#N)C(=O)COC(=O)C2=COCCO2)cc1	-14%	-15%
O=C(NCc1ccccc1Cl)C1CCC(=O)N(C2CC2)C1 (centres undefined)	2%	-8%

The whole of this part, previewed entries included:
SMILES	VACV Venus inh	VACV mCherry inh
CCCNC(=O)N1[C@H]2CC[C@@H]1C(C(=O)OC)=C(c1ccc(S(C)(=O)=O)cc1)C2	-7%	-13%
Cc1noc(C)c1COc1cccc(C(=O)OCCOc2ccc(F)cc2)c1	-10%	nt
Cc1nc2c(C#N)c[nH]n2c(=O)c1CCO	-5%	i
Cc1noc(NS(=O)(=O)c2ccc(NC(=O)C(F)(F)C(F)(F)C(F)(F)F)cc2)c1C	-1%	-9%
COc1cc(OC)cc(-c2c(-c3cccs3)c3cc(-c4ccc(OC)c(OC)c4)ccc3n2C)c1	-8%	i
Cc1ccc(N(CCC#N)C(=O)COC(=O)C2=COCCO2)cc1	-14%	-15%
O=C(NCc1ccccc1Cl)C1CCC(=O)N(C2CC2)C1 (centres undefined)	2%	-8%
CC(=O)Nc1ccc(C(=O)NNC(=O)CCc2ccccc2)cc1	-7%	i
COc1ccc(S(=O)(=O)/N=C2\C=C(Nc3ccc(O)cc3)C(=O)c3ccccc32)cc1	3.5µM*	5µM*
CCOC(=O)Nc1sc2c(c1C#N)CCC(C)C2 (centres undefined)	-15%	nt
COc1ccc(OC)c(C(C)NC(=O)Cn2c(=O)cc(C)c3c(C)nn(-c4ccc(C)cc4)c32)c1 (centres undefined)	-14%	-12%
CCOc1nc(S(=O)(=O)c2ccc(C)cc2)c(Cl)s1	-17%	i
[O-][n+]1onc2c1CCc1c-2nn(-c2ccccc2Cl)[n+]1[O-]	1.3µM*	1µM*
CC(C)NS(=O)(=O)c1ccc(CCC(=O)N2CCCCC2)cc1	3%	1%
Nc1ccc2c(c1)C(=O)c1cc(Cl)c(Cl)cc1-2	10%	?
CCOC(=O)c1cc2c(=O)n3ccccc3nc2n(C(C)C)c1=NC(=O)c1ccco1	-3%	-7%
CC1(C)CC(=O)C(C=NCCN2CCN(CC(=O)Nc3ccccc3)CC2)=C(O)C1	-17%	i
COC(=O)c1c(NC(=O)C2(C)Cc3ccccc3C(=O)O2)sc2c1CCCC2 (centres undefined)	-17%	-16%
Cc1cccc(OCC(=O)N2CCc3ccccc3C2)c1C	0%	i
COc1cc(S(=O)(=O)NC2CCCCC2)ccc1Cl	-23%	nt

As entered above.
VACV Venus inh result of CCOc1nc(S(=O)(=O)c2ccc(C)cc2)c(Cl)s1 stands at -17%
VACV Venus inh result of COc1cc(S(=O)(=O)NC2CCCCC2)ccc1Cl stands at -23%
VACV Venus inh result of CCOC(=O)Nc1sc2c(c1C#N)CCC(C)C2 (centres undefined) stands at -15%
VACV Venus inh result of Cc1cccc(OCC(=O)N2CCc3ccccc3C2)c1C stands at 0%
VACV Venus inh result of [O-][n+]1onc2c1CCc1c-2nn(-c2ccccc2Cl)[n+]1[O-] stands at 1.3µM*
VACV mCherry inh result of COc1ccc(OC)c(C(C)NC(=O)Cn2c(=O)cc(C)c3c(C)nn(-c4ccc(C)cc4)c32)c1 (centres undefined) stands at -12%
VACV Venus inh result of Cc1nc2c(C#N)c[nH]n2c(=O)c1CCO stands at -5%

The list goes on:
SMILES	VACV Venus inh	VACV mCherry inh
COc1cc2c3c(cccc3c1)C(=O)N(CCN1CCCC1)C2=O	?	?
COc1ccc(OC)c(NC(=O)Nc2nnc(N3CCCCC3C)s2)c1 (centres undefined)	-21%	?
CCOC(=O)c1ccc(NC(=O)CCS(=O)(=O)c2cccc3nonc23)cc1	-20%	i
Cc1ccc2oc(=O)c3cnn(CC(=O)N4CCN(c5ccccc5)CC4)c3c2c1	2%&4%	-1%
Cc1cc(=O)oc(C)c1C(=O)NC1CCCCCCC1	-18%	-15%
CCN1CCC(C(N)=O)CC1	-8%	nt
CCCC(=O)c1cc(F)c(N2CCOCC2)cc1C	-9%	-14%
Cc1cc(=O)n2nc(N3CCCC(C(=O)NCc4ccccc4)C3)sc2n1 (centres undefined)	2%	38%[activator]
CC(=O)N1CCN(c2ccc(NCc3cccs3)cc2)CC1	5%	11%
CC(=O)OCC(C)n1[nH]c2ccccc2c1=O (centres undefined)	-6%	29%
CCN(CC)S(=O)(=O)c1cccc(N2CC(O)=C(c3ccccc3)C2=N)c1	10%	8%
CC1CCC(NCc2ccco2)CC1 (centres undefined)	11%	16%
COc1cccc(C2N(c3cccc(Cl)c3)C(=O)C3CCCN32)c1 (centres undefined)	-1%	3%
COc1ccc(CNC(=O)c2ccccc2SCC(=O)N2CCCC2)cc1OC	-8%	-3%
O=[N+]([O-])/N=C1\NCCN1Cc1ccc(Cl)nc1	-2%	-2%
[O-][n+]1ccc(CC(O)(C(F)(F)F)C(F)(F)F)cc1	-13%	i
COc1ccc(S(=O)(=O)NCc2cccnc2)cc1NC(=O)c1ccccc1C	6%	-27%
COc1ccc(NC(=O)c2nc(C)c(C3(C)CC(c4cccnc4)=NO3)s2)cc1 (centres undefined)	-29%	-7%
O=C(O)CCCCCNS(=O)(=O)c1ccc(Cl)cc1	-4%	-2%
CCCCN(CC)C(=O)CSc1nc2n[nH]c(C)c2c(=N)n1-c1cccc(Cl)c1	-30%	?
COC(=O)c1c(C)nc(C)c(C(=O)OC)c1-c1cccs1	-14%	-14%
Cc1ccc(NS(=O)(=O)c2ccc3c(c2)CC(C)N3C(=O)C2CCC2)cc1Cl (centres undefined)	-21%	-31%
Cc1ccc(CCC2C3=C(CCCC3=O)OC3=C2C(=O)CCC3)cc1	-13%	-26%
CCn1c2ccccc2c2cc(NC(=O)CNC)ccc21	1%	-26%
Cc1cc(C)c2c(n1)sc1c(=O)n(-c3ccccc3)c(=O)[nH]c12	-8%	-14%
CC1=C(C(N)=O)C(c2ccco2)C(C(N)=O)=C(C)N1	-1%	-8%
O=C(NC1CCN(C(=O)C2CCCCC2)CC1)c1ccccc1	?	?
COc1ccccc1CNC(=O)[C@H](C)NC(=O)C1CCN(C(=O)[C@H](CCSC)NC(=O)OC(C)(C)C)CC1	6%	-6%
COC(=O)C1=C(C(=O)OC)[C@@H]2N(C)c3ccccc3[C@@]23C[C@@H](C(=O)OC)N(C(=O)CC(C)C)C3=N1	-13%	i
O=C(OCc1ccccc1Cl)c1ccc(-c2nnn(Cc3ccccc3)n2)cc1	-14%	-12%
N#Cc1nc(COc2ccc(Cl)cc2)oc1NCc1ccc2c(c1)OCO2	-27%	-14%
CCOC(=O)c1[nH]c2ccccc2c1NC(=O)c1ccc(OCC)cc1	3%	-13%
COc1cccc(C(C)(O)c2nc(-c3ccc(Cl)cc3)cs2)c1 (centres undefined)	-15%	i
O=C(N/N=C\C=C\c1ccc([N+](=O)[O-])o1)c1cccs1	?	10µM*
CC(=O)N1CCCc2cc(S(=O)(=O)N3CCCC(C(=O)NCc4ccccc4)C3)ccc21 (centres undefined)	-23%	-26%
O=C(CN(Cc1ccco1)C(=O)CNS(=O)(=O)c1ccccc1)NCc1ccccc1	-14%	nt
Cc1c(NC(=S)NC(=O)c2cccc3ccccc23)cccc1C(=O)O	-3%	-22%
CCC(c1nnnn1-c1ccc2c(c1)OCCO2)N1CCN(c2ccc(C)cc2)CC1 (centres undefined)	-2%	14%
O=C(NCc1ccc2c(c1)OCO2)c1nc(Cn2cc([N+](=O)[O-])cn2)no1	-5%	2%
COc1cccc2oc3ccc(C#Cc4ccccn4)cc3c(=O)c12	-10%	i
COc1ccccc1-n1c(SCC(=O)NC(C)(C)C)nc(O)cc1=O	0%	-14%
CC(C)(C)NC(=O)C(c1cc2ccccc2o1)n1c(-c2ccc(-c3ccccc3)cc2)nc2ccccc21 (centres undefined)	-4%	2%
Cc1ccccc1-c1nc(CS(=O)(=O)CC(=O)NCCCN2CCOCC2)c(C)o1	-12%	-21%
CCc1nn2c(=O)cc(COC(=O)c3ccccc3NC(=O)COc3ccc(F)cc3)nc2s1	-14%	-15%
O=C(NCCNc1ccc(Cl)cc1[N+](=O)[O-])c1cccnc1	-7%	i
CCOC(=O)c1nnc2cc(-c3ccccc3)nn2c1C	?	nt
COc1ccccc1N1CCN(S(=O)(=O)c2cc(C)sc2C)CC1	9%	?
CC(C)c1ccc(N(CC(=O)NC2CCCC2)C(=O)CCC(=O)Nc2nccs2)cc1	2%	-5%
CCOC(=O)N1CCN(S(=O)(=O)c2cc(Br)cc3c2N(C(C)=O)C(C)C3)CC1 (centres undefined)	11%	3%
CCc1nc2ccc(C(=O)Nc3cc(-c4ccccc4)ccc3OC)cn2c1N(CC)CCN(C)C	-18%	9%
COc1ccc(NC(=O)N2C[C@@H]3C[C@@H](C2)c2cccc(=O)n2C3)cc1	4%	-2%
Cc1nc2cccnc2n1C1CCN(S(=O)(=O)N(C)C)CC1	-10%	-20%
COc1nc(N(c2ccccc2)c2ccccc2)nc(-n2ccnc2)n1	-24%	-23%
COc1cccc(N2CCN(CC(=O)N3CCN(S(=O)(=O)c4ccc(Cl)cc4)CC3)CC2)c1	-26%	-12%
CC1CC(OC(=O)c2ccccc2)(c2ccccc2)C(C)CN1C (centres undefined)	-11%	-13%
CN(CC(=O)NCc1ccccn1)S(=O)(=O)c1ccc(Cl)cc1	-15%	nt
CC1=C(C)C(=O)C(CCCCC#CCCCC#CCO)=C(C)C1=O	-14%	i
CC(C)N1CCC(N2CCN(C/C=C/c3ccc(F)cc3)CC2CCO)CC1 (centres undefined)	-5%	-23%
Cc1cc2cc(CN(CCCO)S(=O)(=O)c3cccc4nsnc34)c(=O)[nH]c2cc1C	-12%	-25%
O=C(NCc1cccnc1)c1cccc2c1C(=O)N(C1CCCCC1)C2	-25%	-17%

Other results:
SMILES	VACV Venus inh	VACV mCherry inh
O=C(COc1ccccc1Cl)OCc1cc(=O)n2nc(C3CCCCC3)sc2n1	-4%	-8%
Clc1ccc(-c2nc3ccccn3c2Nc2ccc3c(c2)OCCO3)s1	0%	-2%
CN1CCCN(C(=O)[C@@H]2C[C@@H](Sc3nc4ccccc4[nH]3)CN2Cc2ccc(-c3ccccc3)cc2)CC1	-14%	-19%
Cc1ccc2oc(/N=C(\N)NC(=O)C(C)(C)C)nc2c1	-18%	0%
O=S(=O)(NC1CCN(Cc2ccccc2)CC1)c1cccc(S(=O)(=O)N2CCOCC2)c1	7%	12%
COCCNC(=O)c1cc2cc(Cl)cc(Cl)c2oc1=O	-5%	i
O=C(C1CCN(c2ncnc3c2nc2n3CCCCC2)CC1)N1CCN(c2cccc(Cl)c2)CC1	-18%	-8%
COC(=O)c1ccc(CNC(=O)COC(=O)c2ccc(N(C)C)cc2)cc1	-12%	-18%
COc1cccc([C@@H]2Nc3ccc(C(=O)O)cc3[C@@H]3C=CC[C@@H]32)c1OC	-4%	-7%
